# A1 inh = inhibitors of the anti-apoptotic protein A1, read as caspase activation; AID 2462; actives 0.066% (n = 330,000); caspase activation, % (no concentration beside the values); MEF A1-2A-BIM cells, Caspase-Glo 3/7 luminescence, 3 h; percent of clofoctol response, vehicle zero;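 active means over half of replicate activation scores above 10%, or exactly half above 10 with the replicate mean above 10; inconclusive means replicate mean below 10 yet half the replicates above 10; inactive means over half of replicates below 10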;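 further: wells of about 30 µL received 50 nL stock; many hits fall short of the cut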
# Vif TR-FRET = HIV-1 Vif–A3G interaction blockers – biochemical, TR-FRET, GST-Vif 1-94, biotin-A3G peptide, dose response retest, primary screen (AID 1117319). TR-FRET GST-Vif / biotin-A3G peptide binding; higher % means a stronger effect; test concentration not given here; strong numbers were not always called active. one-dose inhibition, %; IC50 in µM for titrated hits. actives 0.57% (n = 260,000);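 active means above the screen mean plus three standard deviations and confirmed in dose response; inconclusive means results disagree or hit not tested in dose response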;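 further: Vif residues 1-94 fused to GST binding biotinylated APOBEC3G peptide 110-148; 0% = full assay without inhibitor and 100% = GST in place of GST-Vif; retest series ran down from 100 µM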
# E coli growth = E. coli growth inhibition; Escherichia coli growth, OD600, 23 h; hits give low values; OD600 absorbance (concentration not given with the values); actives 0.21% (n = 330,000); AID 1053175;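 active means OD600 absorbance below the run mean of sample wells minus 3.6 SD, in any replicate, cut at about 0.56 in these data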;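 further: stock transfer was 300 nL into about 60 µL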
# UCH37 inh = human UCH37 deubiquitinating enzyme inhibition | Q9Y5K5 | purified proteasome/UCH37, Ub-AMC cleavage fluorescence | inhibition, % (no concentration beside the values) | actives 0.33% (n = 330,000) | AID 588478;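 active means mean of two replicates above 20%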;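 further: 0% = compound-free wells with enzyme and 100% = wells lacking proteasome; stock transfer was 100 nL into about 20 µL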
#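 Material: human UCH37 enzyme supplied as purified proteasome complex / Amount: 0.15 nM proteasome as dispensed / Buffer or medium: pH 7.4 Tris-HCl (50 mM) with ovalbumin, ATP-MgCl2, DTT / Times: preincubation 30 min, reaction 25 min, room temperature / Technique: AMC fluorescence from Ub-AMC cleavage, excitation 355 nm, emission 460 nm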
# Beta2AR agonist = agonists of human beta-2 adrenergic receptor inducing internalization; actives 0.43% (n = 340,000); P07550; Am2.2-beta2AR cells, FAP receptor internalization, flow cytometry; reference of the scale not given here; response, % (no concentration beside the values);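 active means response above a set limit, near 3 SD of response in nonfluorescent compounds, cut at about 42% in these data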;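 further: stock transfer was 100 nL into about 11 µL; a reference agonist was the positive control; negative values mostly stem from fluorescent compounds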
# LANA-H2B inh = blocks KSHV LANA binding to histone H2A/H2B. Q9QR71. cell-free LANA-H2A/H2B peptide, fluorescence polarization. inhibition, % (no concentration beside the values). actives 0.6% (n = 320,000). AID 2629; in the data active means inhibition mostly above about 10%, no sharp cut-off; inactive means mostly below about 6.7%;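 further: stock transfer was 7.5 nL into about 10 µL; 0% = median of vehicle wells and 100% = median of positive control wells; one replicate is shown; the record names a cut of 25% in any replicate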
# Target sequence (Q9QR71 whole entry, looked up): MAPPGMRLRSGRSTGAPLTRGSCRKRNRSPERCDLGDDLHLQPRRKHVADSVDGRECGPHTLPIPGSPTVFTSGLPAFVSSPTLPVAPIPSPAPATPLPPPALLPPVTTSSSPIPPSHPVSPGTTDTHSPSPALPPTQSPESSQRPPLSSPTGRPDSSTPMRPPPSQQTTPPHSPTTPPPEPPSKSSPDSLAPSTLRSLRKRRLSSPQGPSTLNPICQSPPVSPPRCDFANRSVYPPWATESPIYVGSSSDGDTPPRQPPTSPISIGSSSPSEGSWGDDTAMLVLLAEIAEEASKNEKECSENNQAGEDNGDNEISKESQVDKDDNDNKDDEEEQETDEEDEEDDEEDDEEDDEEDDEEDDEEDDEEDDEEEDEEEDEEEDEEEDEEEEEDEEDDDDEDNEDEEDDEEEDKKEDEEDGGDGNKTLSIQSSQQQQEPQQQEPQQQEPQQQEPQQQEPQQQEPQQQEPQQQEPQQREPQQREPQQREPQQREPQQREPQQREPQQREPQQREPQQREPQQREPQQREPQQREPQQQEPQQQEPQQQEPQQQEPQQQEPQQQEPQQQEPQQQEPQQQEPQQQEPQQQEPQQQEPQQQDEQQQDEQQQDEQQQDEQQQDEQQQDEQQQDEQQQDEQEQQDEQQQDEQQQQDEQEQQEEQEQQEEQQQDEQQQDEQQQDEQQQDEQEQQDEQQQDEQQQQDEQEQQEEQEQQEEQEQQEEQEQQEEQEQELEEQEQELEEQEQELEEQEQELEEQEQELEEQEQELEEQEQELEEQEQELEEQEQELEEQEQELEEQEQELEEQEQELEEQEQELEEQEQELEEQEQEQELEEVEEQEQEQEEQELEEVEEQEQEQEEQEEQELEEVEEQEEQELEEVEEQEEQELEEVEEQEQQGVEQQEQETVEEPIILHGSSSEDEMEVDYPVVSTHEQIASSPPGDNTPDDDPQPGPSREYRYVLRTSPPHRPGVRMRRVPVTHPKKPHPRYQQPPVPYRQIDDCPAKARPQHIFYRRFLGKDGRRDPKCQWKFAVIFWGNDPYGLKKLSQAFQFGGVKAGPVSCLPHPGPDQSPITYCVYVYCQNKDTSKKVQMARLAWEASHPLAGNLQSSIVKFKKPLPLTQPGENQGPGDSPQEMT
# HNF4A DNA FP = change in binding of human HNF4 alpha to DNA. HNF4a-FITC DNA binding, fluorescence polarization, 1 h. actives 0.3% (n = 360,000). P41235. activity change, % at 10 µM; in the data active means activity change above about 30%, passing the limit was not always enough;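 further: controls were the assay level and a saturating level of protein; the project sought stronger binding though the title names inhibitors; some compounds called inactive have numbers as strong as hits; positive values seem to mean higher polarization but the record does not say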
# Starred values were filed as active, the others as inactive; i = inactive; ? = inconclusive; . = not tested or not shown; & = joins results of further samples.
SMILES,A1 inh,Vif TR-FRET,E coli growth,UCH37 inh,Beta2AR agonist,LANA-H2B inh,HNF4A DNA FP
COc1ccc(NC(=O)c2cccc(Oc3ccccc3)c2)cn1,-3.5,.,0.626,5.3,-4.1,-2.1,1.3
O=C(NCc1ccccc1)c1nc(S(=O)(=O)Cc2ccccc2)ncc1Cl,2.4,.,0.684,3.8,26.2,-2.1,3.0
CC1(c2ccccc2Cl)NC(=O)N(CC(=O)Nc2ccc(N3CCOCC3)cc2)C1=O (stereo not given),-0.2,.,0.684,0.8,-3.8,-5.6,0.9
COC(=O)c1ccc(NC(=O)c2ccc3nccnc3c2)cc1,-0.9,.,0.706,1.9,2.4,12.8,-1.3
Cc1ccc(C2CC(c3ccco3)n3nc(N)nc3N2)cc1 (stereo not given),?,3.9%,0.736,4.5,1.6,-2.6,-2.5
Cc1[nH]nc2c1C(c1cccnc1)N(c1ccc(Br)cc1)C2=O (stereo not given),-0.2,10.3%&1.3%,0.633,0.7,-2.5,1.3,2.0
CC(C)CCNC(=O)CCn1c(=S)oc2ccccc21,0.2,-9.6%,0.69,-0.1,-3.8,1.9,1.5
O=c1cccc(-c2ccccc2)[nH]1,2.2,4.8%,0.719,5.4,-13.4,1.4,-2.1
CCOc1ncccc1C(=O)OCC(=O)Nc1ccc(-c2nc3ccc(C)cc3s2)cc1,-3.4,-20.4%,0.693,-60.0,3.8,-1.5,5.0
COc1ccccc1N1CCN(C(=O)C(C)NC(=O)c2cccc([N+](=O)[O-])c2)CC1 (stereo not given),-0.7,.,0.661,0.2,1.4,-2.2,-0.2
COc1cccc(CN2CC(C(=O)NCCN3CCOCC3)CCC2=O)c1 (stereo not given),-0.4,.,0.693,5.9,-4.4,-0.3,-6.8
O=C1CC(c2ccc(F)cc2)Cc2nc(N3CCN(c4ccccc4)CC3)ncc21 (stereo not given),0.0,-9.6%,0.748,-1.0,-1.3,2.0,1.4
CCC1=C(OC(=O)N(CC)CC)N2C(=O)OC(=NCCOC)[C@]2(Cc2ccccc2)[C@H]2C1=CC[C@H]1C(=O)N(C)C(=O)[C@H]12,0.2,.,.,0.9,0.0,-2.1,3.5
O=C(O)COc1ccc(-c2nccc(-c3cccs3)n2)cc1,0.0,?,.,.,.,2.2,.
CCOC(=O)N1CCN(C(=O)c2ccc(-n3c(C)ccc3C)cc2)CC1,-0.8,24.4%,.,.,-4.2,-3.3,3.2

# Some of the entries so far, with values under each structure:
# Results follow in this order: A1 inh	Vif TR-FRET	E coli growth	UCH37 inh	Beta2AR agonist	LANA-H2B inh	HNF4A DNA FP
Cc1[nH]nc2c1C(c1cccnc1)N(c1ccc(Br)cc1)C2=O (stereo not given)
 : -0.2	10.3%&1.3%	0.633	0.7	-2.5	1.3	2.0
CC(C)CCNC(=O)CCn1c(=S)oc2ccccc21
 : 0.2	-9.6%	0.69	-0.1	-3.8	1.9	1.5
O=c1cccc(-c2ccccc2)[nH]1
 : 2.2	4.8%	0.719	5.4	-13.4	1.4	-2.1
CCOc1ncccc1C(=O)OCC(=O)Nc1ccc(-c2nc3ccc(C)cc3s2)cc1
 : -3.4	-20.4%	0.693	-60.0	3.8	-1.5	5.0
COc1ccccc1N1CCN(C(=O)C(C)NC(=O)c2cccc([N+](=O)[O-])c2)CC1 (stereo not given)
 : -0.7	.	0.661	0.2	1.4	-2.2	-0.2
COc1cccc(CN2CC(C(=O)NCCN3CCOCC3)CCC2=O)c1 (stereo not given)
 : -0.4	.	0.693	5.9	-4.4	-0.3	-6.8
O=C1CC(c2ccc(F)cc2)Cc2nc(N3CCN(c4ccccc4)CC3)ncc21 (stereo not given)
 : 0.0	-9.6%	0.748	-1.0	-1.3	2.0	1.4
CCC1=C(OC(=O)N(CC)CC)N2C(=O)OC(=NCCOC)[C@]2(Cc2ccccc2)[C@H]2C1=CC[C@H]1C(=O)N(C)C(=O)[C@H]12
 : 0.2	.	.	0.9	0.0	-2.1	3.5
O=C(O)COc1ccc(-c2nccc(-c3cccs3)n2)cc1
 : 0.0	?	.	.	.	2.2	.
CCOC(=O)N1CCN(C(=O)c2ccc(-n3c(C)ccc3C)cc2)CC1
 : -0.8	24.4%	.	.	-4.2	-3.3	3.2

# The list continues:
SMILES,A1 inh,Vif TR-FRET,E coli growth,UCH37 inh,Beta2AR agonist,LANA-H2B inh,HNF4A DNA FP
CN(C1CCCCC1)S(=O)(=O)Cc1ccccc1,0.7,-2.9%,0.654,3.4,2.0,3.9,-1.1
COC(=O)c1cccc(C23CC4(C2)[C@H](CN(C)[C@@H]4c2ccccc2)C3c2ccccc2)c1 (stereo not given in full),-1.5,1.9%,.,0.5,24.3,0.4,-1.8
COc1ccccc1N(CC(=O)NC1CCCCC1)C(=O)Cn1nnc(-c2ccc(C)o2)n1,.,.,0.689,1.0,-38.8,.,1.9
O=C(Cn1nc(-c2ccco2)ccc1=O)Nc1cc(Cl)ccc1Cl,-0.4,.,0.691,-74.5,-6.7,-1.0,7.8
N#CC1C(=O)c2ccccc2C1c1ccccc1 (stereo not given),.,3.6%,.,.,5.1,.,16.3
c1cnn(-c2nc(N3CCOCC3)nc(N3CCOCC3)n2)c1,0.1,-5.1%,0.713,-0.4,-4.1,-2.0,1.4
COc1ccc(C(=O)/C=C/Nc2cc(C)on2)c(OC)c1,1.9,-2.9%,0.71,5.6,-4.0,1.2,1.6
COc1cccc(/C=C2\SC(=O)N(CCC(=O)N3CCC(C(=O)O)CC3)C2=O)c1,-1.7,.,.,.,3.8,0.9,-5.1
CC(C)(C)c1ccc(NC(=O)c2ccc(=O)[nH]n2)cc1,0.7,13.0%,0.629,0.9,6.1,-1.2,0.9
COc1cc2c(cc1OC)CN(C(=O)CSc1nc(C)cc(C)c1C#N)CC2,0.2,0.9%,0.763,-1.4,-17.7,-1.2,2.7
CC1CC(C)CN(CCCNC(=O)Cc2c(C(=O)O)n(C)c3ccccc23)C1 (stereo not given),-0.3,13.2%,0.648,0.5,1.6,-2.7,3.2
CCOc1ccccc1C(=O)OCC(=O)Nc1ccc(OC(F)F)cc1,-0.3,-3.9%,0.711,1.4,18.5,1.1,2.1
CCOC(=O)C1=C(C)NC(=S)NC1c1ccc(OCC(=O)N2CCCCCC2)cc1 (stereo not given),-0.2,.,0.652,3.7,4.1,-2.0,3.0
COc1ccc2oc(=O)c(C(=O)NCc3cccnc3)cc2c1,0.7,2.3%,0.714,-119.3,-1.9,2.8,-0.9
CC(C)COC(=O)C1[C@H]2C(=O)N(Cc3cccs3)C[C@]23C=C[C@H]1O3 (stereo not given in full),0.1,-0.1%,0.7,-1.6,7.3,-0.5,-1.8
CC(=O)Nc1ccc(S(=O)(=O)Nc2nc3ccccc3nc2-n2ccc(=NC(=O)c3ccc(F)cc3)cc2)cc1,-0.4,i,.,.,-1.4,-5.7,1.5
CC(=O)Nc1ccc(N(C(=O)CNC(=O)c2ccco2)C(C(=O)NC2CCCC2)c2ccco2)cc1 (stereo not given),0.4,.,0.671,1.8,-4.1,-4.4,2.2
FC(F)(F)c1cc(-c2ccccc2)nc(NCc2cccnc2)n1,0.6,-5.3%,0.721,-15.4,-15.1,2.0,-2.0
O=C(CN1C(=O)c2ccccc2C1=O)N1CCN(c2ccccc2)CC1,0.3,13.4%,0.763,1.6,-10.9,5.4,-1.5
Cc1cc(=O)oc2cc(OCC(=O)NC3CCCCC3)ccc12,-0.1,0.3%,0.634,-25.9,9.3,2.4,3.1
CC(C)NC(=O)c1ccc(N(Cc2ccc(Cl)cc2)S(C)(=O)=O)cc1,1.1,.,0.633,4.3,-6.5,1.1,0.5
CC(=O)Nc1ccc(S(=O)(=O)N2CCN(CC(=O)NC3CCCC3)CC2)cc1,0.0,-6.3%,0.776,1.8,1.8,3.6,1.7
O=C(/C=C/c1cccc2ccccc12)N1CCOCC1,-0.8,-5.1%,0.635,-13.8,-1.2,0.8,3.1
CCOC(=O)Cn1nc(C)n(-c2cccc(Cl)c2)c1=O,0.4,-5.1%,0.713,3.1,2.8,4.3,5.6
O=C(Nc1ccc(Cl)cc1)c1nc[nH]c1C(=O)NCCCCNC(=O)c1[nH]cnc1C(=O)Nc1ccc(Cl)cc1,0.2,.,0.639,-27.8,6.1,-4.8,24.4
COc1cc(OC)c(/C=N/NC(N)=S)cc1Br,0.1,.,.,.,-5.9,3.4,-0.5
N#CC1(Nc2ccc3ccccc3c2)CCCC1,.,5.5%,0.632,-20.8,12.2,.,5.2
C=CCc1cc(Cl)ccc1OCCN1CC(C)OC(C)C1 (stereo not given),2.0,.,0.648,2.8,-7.0,-1.5,-0.8
Oc1ccc(Cl)cc1C1=Nc2ccccc2N=C(c2ccco2)C1,1.4,.,0.706,5.3,-8.3,1.2,21.0
CC1CN(C(=O)Cn2cnc3c2c(=O)n(C)c(=O)n3C)CC(C)O1 (stereo not given),-0.3,-1.4%,0.761,-2.6,1.9,1.9,1.8
c1ccc(CSc2nc3ncccn3n2)cc1,-3.3,3.7%,0.674,3.3,-5.2,0.5,-1.4
O=C(COC(=O)/C=C/c1cccs1)NC(=O)Cc1ccccc1,0.6,2.7%,.,2.1,-1.4,-6.5,-4.2
Cc1ccc(Nc2nnc(-c3ccc(N4CCOCC4)c([N+](=O)[O-])c3)c3ccccc23)cc1,1.4,-1.0%,0.709,5.7,11.6,3.2,5.1
O=C(Nc1ncccc1O)c1cccc(S(=O)(=O)N2CCc3ccccc32)c1,1.9,20.9%,0.722,0.6,-7.1,0.2,-0.6
c1ccc2c(c1)CCN(c1nc3cc4c(cc3s1)OCCO4)C2,-11.2,14.7%,0.69,-3.6,6.5,-9.0,5.7
Cc1cc(C(=O)NCc2ccc(F)cc2)c2ccccc2n1,0.1,.,0.693,3.1,-12.2,1.5,1.3
CC1CC=CCC1(CO)CO (stereo not given),.,-3.2%,.,.,4.7,.,1.2
O=C(Cc1ccc(F)cc1)Nc1ccc(S(=O)(=O)N2CCCC2)cc1,-0.1,-2.0%,0.682,3.3,-1.2,0.0,0.6
COc1ccc(CCNC(=O)CCc2ccsc2)cc1OC,-0.5,.,0.676,-0.9,13.4,4.3,-0.7
CCCCCC(=O)Nc1cccc2ccccc12,-0.2,-1.0%,0.699,1.0,6.6,2.2,-0.1
COC(=O)c1cc(NC(=O)CC2SC(=Nc3ccccc3)N(CCc3c[nH]c4ccccc34)C2=O)cc(C(=O)OC)c1 (stereo not given),0.1,17.5%,0.783,3.8,-0.2,-6.4,3.5
Cc1ccc(NC(=S)N=Nc2c(O)[nH]c3ccccc23)cc1,-0.7,9.5%,0.658,2.0,0.2,0.0,1.7
O=C(O)Cc1sc(Nc2cccc3ccccc23)nc1-c1ccc(F)cc1,-0.6,-1.0%,0.711,-6.8,4.8,-1.7,5.3
O=C(NCC1CCCO1)c1cc(Br)c(Br)s1 (stereo not given),-0.5,.,0.665,1.0,3.0,0.3,2.6
O=C(Oc1cccc(NC(=O)c2ccco2)c1)c1cccc(S(=O)(=O)N2CCCCC2)c1,-1.6,12.3%,0.759,-1.7,8.7,-1.4,1.4
Cn1nnnc1SCC1=C(C(=O)O)N2C(=O)C(NC(=O)C3CC3c3ccccc3)C2SC1 (stereo not given),2.1,.,0.64,0.9,0.1,1.9,-5.3
CN(CC(=O)Nc1ccc(N2CCOCC2)cc1)CC(=O)Nc1ccc([N+](=O)[O-])cc1Br,0.1,-6.7%,0.683,6.9,2.9,2.9,2.2
Nc1ccc(O)c2c(=O)cc(-c3ccccc3Cl)oc12,-4.6,2.7%,0.703,0.8,-9.8,-11.2,1.8

# Assay outcomes as filed in PubChem BioAssay.

# Rows were taken by chance; any-hit rate near 2.1%.
